Compound activity from PubChem BioAssay.
Vif TR-FRET: inhibitors of Vif binding to APOBEC3G peptide, primary screen, biochemical, TR-FRET, GST-Vif 1-94, biotin-A3G peptide, dose response retest (AID 1117319). TR-FRET GST-Vif / biotin-A3G peptide binding; higher % means a stronger effect; test concentration not given here; strong numbers were not always called active. one-dose inhibition, %; IC50 in µM for titrated hits. 260,000 compounds, 0.57% hits;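 active = above the screen mean plus three standard deviations and confirmed in dose response; inconclusive = results disagree or hit not tested in dose response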;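 note: Vif residues 1-94 fused to GST binding biotinylated APOBEC3G peptide 110-148; 0% = full assay without inhibitor and 100% = GST in place of GST-Vif; retest series ran down from 100 µM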
HNF4A DNA FP: change in binding of human HNF4 alpha to DNA; P41235; HNF4a-FITC DNA binding, fluorescence polarization, 1 h; activity change, % at 10 µM; 360,000 compounds, 0.3% hits; in the data active = activity change above about 30%, passing the limit was not always enough;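 note: controls were the assay level and a saturating level of protein; the project sought stronger binding though the title names inhibitors; some compounds called inactive have numbers as strong as hits; positive values seem to mean higher polarization but the record does not say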
rRNA inh HTS: selective bacterial rRNA inhibition in E. coli | E. coli WT GFP vs humanized-ribosome RFP mutants, fluorescence, 24 h; stronger effect = lower value; DMSO median 0, no signal -100 | GFP signal change (wild-type ribosome), % (no concentration beside the values) | 350,000 compounds, 1.6% hits | AID 720706;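 active = significant combined selectivity score with lowered wild-type GFP, culture density cut under 30%, mutant RFP and density less affected; inactive = any of these conditions unmet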; note: one replicate is shown; some compounds called inactive have numbers as strong as hits
ALR inh: inhibitors of human sulfhydryl oxidase ALR. P55789. purified ALR, DTT oxidation, H2O2 HRP-luminol luminescence. inhibition, % (concentration not given with the values). 290,000 compounds, 3.8% hits. AID 485317;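 active = mean and each replicate at 75% or more; inconclusive = only one of the two met; inactive = neither met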;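 note: stock transfer was 7.5 nL into about 7.5 µL; 0% = neutral wells and 100% = wells with inactivated enzyme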
Target sequence (P55789 whole entry, looked up): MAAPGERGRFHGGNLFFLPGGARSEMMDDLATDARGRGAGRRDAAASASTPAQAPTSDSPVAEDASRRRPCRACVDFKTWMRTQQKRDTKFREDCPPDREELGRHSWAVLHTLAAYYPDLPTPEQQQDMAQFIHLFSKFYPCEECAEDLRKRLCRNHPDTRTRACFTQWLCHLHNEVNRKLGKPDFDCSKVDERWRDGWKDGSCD
AF4-AF9 inh: blocks AF4 peptide binding to human AF9; 350,000 compounds, 0.47% hits; inhibition, % at 10 µM; AlphaScreen, biotin-AF4 peptide binding to FLAG-AF9;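 active = every replicate reaching a set inhibition limit, whatever the replicate mean, cut at about 25% in these data; inconclusive = mean inhibition reaches that limit but some replicates miss it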;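 note: 0% = plate neutral control median and 100% = total signal loss; the record names both 10 and 1 µM as test concentration; the first replicate is given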
Target sequence (P42568 whole entry, looked up): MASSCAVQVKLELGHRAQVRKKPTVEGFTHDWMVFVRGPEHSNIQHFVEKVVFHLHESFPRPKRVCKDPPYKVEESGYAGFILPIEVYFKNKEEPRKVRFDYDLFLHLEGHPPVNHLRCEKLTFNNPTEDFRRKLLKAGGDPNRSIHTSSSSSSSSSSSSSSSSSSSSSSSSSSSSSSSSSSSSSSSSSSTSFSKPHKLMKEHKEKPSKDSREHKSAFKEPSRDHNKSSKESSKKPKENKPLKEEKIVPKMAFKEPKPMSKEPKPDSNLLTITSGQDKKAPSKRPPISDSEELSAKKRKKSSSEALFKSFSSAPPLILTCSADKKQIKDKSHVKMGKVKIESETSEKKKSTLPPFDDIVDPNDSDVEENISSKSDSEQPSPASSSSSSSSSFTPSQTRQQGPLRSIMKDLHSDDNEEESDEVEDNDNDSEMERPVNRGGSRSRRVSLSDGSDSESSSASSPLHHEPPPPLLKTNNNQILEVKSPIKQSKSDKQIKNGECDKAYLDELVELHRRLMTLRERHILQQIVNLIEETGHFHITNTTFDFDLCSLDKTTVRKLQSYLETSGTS
Ecoli growth: blocks Escherichia coli growth | AID 1053175 | OD600, 23 h; stronger effect = lower value | OD600 absorbance (no concentration beside the values) | 330,000 compounds, 0.21% hits;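 active = OD600 absorbance below the run mean of sample wells minus 3.6 SD, in any replicate, cut at about 0.56 in these data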;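 note: stock transfer was 300 nL into about 60 µL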
FGF22 binding: binders of recombinant human FGF22 by thermal shift | Q9HCT0 | SYPRO orange fluorescence; percent of sucrose octasulfate shift, DMSO zero | calls only at 9.99 µM | 340,000 compounds, 1.5% hits | AID 651658;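 active = melting point raised past a set limit in the mean and every replicate; inconclusive = no clear call; three in four hits are not shown here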
Target sequence (Q9HCT0 whole entry, looked up): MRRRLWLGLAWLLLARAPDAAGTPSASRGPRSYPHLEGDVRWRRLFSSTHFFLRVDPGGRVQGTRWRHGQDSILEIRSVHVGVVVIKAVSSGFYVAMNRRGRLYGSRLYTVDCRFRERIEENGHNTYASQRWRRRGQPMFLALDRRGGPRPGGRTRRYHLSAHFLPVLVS
rRNA inh HTS OD600: further read-out of rRNA inh HTS, marked with its call; OD600 change, %; measured here: OD600 growth;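 optical density of the mix in the first replicate; 0 = DMSO median and -100 = no signal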
rRNA inh HTS RFP: also measured in rRNA inh HTS; calls as there; RFP signal change, %; measured here: RFP humanized mutant strains;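 first replicate; 0 = DMSO median and -100 = no signal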
Active calls of the source: *; i = inactive; ? = inconclusive; . = not tested or not shown. Not all compounds are listed; count on the stated rates, not on these rows.

#	mol	Vif TR-FRET	HNF4A DNA FP	rRNA inh HTS	rRNA inh HTS OD600	rRNA inh HTS RFP	ALR inh	AF4-AF9 inh	Ecoli growth	FGF22 binding
1	O=C1C2CC=CCC2C(=O)N1CC(=O)N(Cc1ccccc1)C1CCS(=O)(=O)C1 (centres undefined)	-3.2%	4.4	.	.	.	-3.4	.	0.729	.
2	C[C@H]1CN([C@@H](C)CO)C(=O)c2cc(/C=C/c3ccccc3)cnc2O[C@H]1CN(C)C(=O)Nc1ccccc1F	.	.	-6.7	-8.4	5.4	.	7.9	.	i
3	Cc1[nH]nc(Nc2ccc(C(C)C)cc2)c1[N+](=O)[O-]	-3.0%	0.1	-17.2	-10.7	-9.7	15.5	2.3	0.626	i
4	O=C(Nc1cccc2ccccc12)c1cnccn1	9.6%	3.5	.	.	.	-23.7	.	0.708	.
5	CC(C)CCN1CCC[C@]2(N[C@H](c3ccc(C(F)(F)F)cc3)[C@@H]3C(=O)N(Cc4ccccc4)C(=O)[C@@H]32)C1=O	-1.4%	4.1	-12.6	-11.0	6.7	.	3.4	.	i
6	C(=N\Nc1nnnn1-c1ccccc1)/c1ccncc1	-1.5%	2.5	.	.	.	52.9	.	.	.
7	COc1ccc(C(=O)N2CCCN(C)CC2)cc1S(=O)(=O)N1CCCc2ccccc21	75.9%	0.0	.	.	.	.	.	0.747	.
8	O=C(CSc1nnc(-c2ccccn2)n1Cc1ccco1)Nc1ccc2c(c1)OCO2	-6.1%	-1.1	.	.	.	37.2	.	0.683	.
9	COc1ccc(C/C(N)=N/OC(=O)c2cccc([N+](=O)[O-])c2)cc1	3.3%	3.8	2.1	2.3	-0.8	-1.6	2.9	0.678	i
10	COc1ccc(S(=O)(=O)N(C)C[C@@H]2OCCCC[C@H](C)Oc3ccc(NC(=O)NC4CCCCC4)cc3C(=O)N([C@H](C)CO)C[C@@H]2C)cc1	.	.	1.8	0.9	1.1	.	-0.7	.	i
11	N#Cc1ccccc1Oc1ccc(S(=O)(=O)N2CCCCC2)cn1	3.4%	-2.8	-3.3	-4.9	-0.5	-6.2	-11.5	0.682	i
12	Cc1noc(C)c1S(=O)(=O)N(C)C[C@@H]1OCCCC[C@H](C)Oc2ccc(NC(=O)CCCN(C)C)cc2C(=O)N([C@H](C)CO)C[C@H]1C	.	.	4.2	3.0	-0.7	.	-2.0	.	i
13	Cc1ccc(C)c(S(=O)(=O)Nc2ccc3[nH]c(=O)[nH]c3c2)c1	.	-1.0	1.7	2.5	-2.6	-20.5	-2.7	0.656	i
14	O=[N+]([O-])c1ccc(NN=Cc2ccc3c(c2)OCO3)nc1	-0.7%	4.6	18.9	19.3	6.6	.	3.9	0.713	i
15	C[C@@H]1CCCCO[C@@H](CN(C)C(=O)CCC(F)(F)F)[C@@H](C)CN([C@H](C)CO)C(=O)c2cc(NS(=O)(=O)c3ccc(F)cc3)ccc2O1	.	.	2.8	2.5	-3.6	.	4.4	.	i
16	O=C(COC(=O)c1cccc(Br)c1)NCCc1ccccc1	12.8%	-1.1	0.1	-2.0	-0.6	-4.1	-0.2	0.695	i
17	CCOC(=O)/C(C#N)=c1/s/c(=C2\C=Cc3ccccc3N2CC)c(=O)n1CC	7.4%	8.1	.	.	.	9.6	.	.	.
18	Cn1c(=O)c2c(ncn2CCC(=O)N/N=C/c2cccnc2)n(C)c1=O	2.7%	-1.2	8.5	-3.1	2.7	2.8	-1.1	.	i
19	COc1ccc(CC(=O)OCC(=O)N2CCCC(C)C2)cc1 (centres undefined)	.	-1.0	3.5	2.6	-2.5	-16.7	-2.8	0.665	i
20	Cc1ccc(NS(=O)(=O)c2ccc(C(=O)NCc3ccc(S(N)(=O)=O)cc3)cc2)cc1	-0.8%	6.9	-4.4	-28.5	2.8	-8.8	0.6	0.722	i
21	O=C(NCCN1CCN(c2ccccc2)CC1)Nc1ccc(Cl)cc1	7.4%	5.2	-3.3	3.4	3.1	67.3	-2.9	0.602	i
22	C[C@@H]1CN([C@H](C)CO)C(=O)c2cc(C#Cc3ccc(F)cc3)cnc2O[C@@H]1CN(C)C	.	.	-0.3	2.2	0.0	.	9.7	.	i
23	CCS(=O)(=O)N1CCCCN2[C@H](CO)[C@H](c3ccc(C4=CCCC4)cc3)[C@H]2C1	.	.	2.2	13.3	1.6	.	-1.6	.	i
24	Cc1ccccc1C1NC(=O)c2ccccc2O1 (centres undefined)	.	-2.5	0.0	2.1	1.3	-1.3	0.8	0.661	i
25	NS(=O)(=O)c1cc2c(cc1Cl)NC(CSCc1ccccc1)=NS2(=O)=O	?	-2.8	-1.2	-2.3	1.9	-0.4	-4.3	0.707	i
26	Cc1ccc(C)c(NC(=S)Nc2cccnc2)c1	1.2%	2.0	-4.1	5.3	-1.0	34.8	1.1	0.719	i
27	COCCN(C(=O)CSc1nnc(-c2ccc(Cl)cc2)o1)c1c(N)n(CC(C)C)c(=O)[nH]c1=O	.	-3.3	0.5	4.0	-1.9	-0.3	-3.3	0.715	i
28	OC(CCCN1CCCCC1)(c1ccccc1)c1ccc(C(F)(F)F)cc1 (centres undefined)	0.5%	-3.1	-9.5	-17.6	5.2	.	-1.1	0.649	i
29	CNC[C@@H]1OCCCC[C@@H](C)Oc2ccc(NC(=O)C3CCCCC3)cc2C(=O)N([C@H](C)CO)C[C@@H]1C	.	.	1.5	5.3	-3.5	.	-1.9	.	i
30	CC(Oc1ccccc1F)C(=O)NNC(=O)Cc1ccc(S(=O)(=O)N2CCOCC2)s1 (centres undefined)	.	11.0	5.9	6.7	-0.7	.	2.6	0.713	i
31	O=C(COC(=O)Cc1ccc(Br)cc1)Nc1c(F)c(F)c(F)c(F)c1F	.	1.0	-24.2*	-11.5*	3.4*	0.5	-4.5	0.677	i
32	Cc1cc(N=NC(=O)c2ccccc2O)c2ccccc2c1O	2.1%	2.6	8.5	0.2	-1.4	-4.7	0.8	0.701	i
33	CCOc1ccccc1/C=N/n1c(COc2ccccc2)n[nH]c1=S	-6.0%	-0.6	-6.0	-25.4	-2.6	-11.1	-2.0	.	i
34	CCCn1cc(C(=O)OCC)c(=O)c2cc(F)c(F)cc21	17.7%	-0.5	15.6	13.0	1.8	-2.4	.	0.669	i
35	O=C(NC1CCCc2c1cnn2-c1ccc(F)cc1F)c1ccccc1N1CCOCC1 (centres undefined)	-1.3%	4.8	-29.4*	-17.1*	0.3*	-0.7	-0.1	0.627	.
36	C[C@H](CO)N1C[C@H](C)[C@H](CN(C)C(=O)c2cc(Cl)cc(Cl)c2)OCc2ccccc2-c2c(n(C)c3ccccc23)C1=O	.	.	2.2	10.9	0.4	.	-2.6	.	i
37	COc1ccc(-c2nc3ccccn3c2Cl)cc1	2.6%	0.8	-2.4	-18.1	-1.4	2.0	1.5	0.66	i
38	CC1(c2ccc(OC(F)F)cc2)NC(=O)N(CC(=O)Nc2ccc(OC(F)F)cc2)C1=O (centres undefined)	.	-0.6	-6.3	-3.5	1.0	-5.3	-0.8	0.697	i
39	Cc1ccc2oc(=O)c3cnn(CC(=O)Nc4cc(-c5cccc(F)c5)no4)c3c2c1	.	-4.9	2.6	11.1	8.5	-12.3	0.7	0.793	i
40	COc1cc(O)c(C(CC(=O)N2CCCC(C)C2)c2ccc(N(C)C)cc2)c(OC)c1 (centres undefined)	.	-0.7	-1.4	-1.8	-14.4	.	19.0	0.664	i
41	COc1ccc(CN(C)C[C@H]2Oc3c(NC(=O)c4cnccn4)cccc3C(=O)N([C@H](C)CO)C[C@@H]2C)cc1	.	.	-2.0	1.0	-1.8	.	-1.1	.	i
42	O=C(CSc1ncnc2c1cnn2-c1ccccc1)NCC1CCCO1 (centres undefined)	-3.1%	3.4	-6.2	-6.9	-4.0	15.7	-3.1	0.69	i
43	C1=C(c2ccc(-c3ccccc3)cc2)Nc2ncnn2C1c1ccco1 (centres undefined)	?	-102.2	.	.	.	.	.	0.835	.
44	C/C(=N\NC(=O)Cc1ccc(Cl)cc1)c1ccccc1O	1.4%	1.8	-8.8	-19.6	-6.6	-6.5	-15.5	.	i
45	Cc1oc2c(C)c(O)ccc2c(=O)c1-c1cnn(-c2ccccc2)c1	-7.1%	0.4	.	.	.	-3.8	.	0.664	.
46	O=C(C1CCCC1)N1C[C@@H]2[C@H](c3ccccc31)[C@H](CO)N2C(=O)c1ccccc1F	.	.	0.7	7.5	0.3	.	-2.9	.	i
47	COCC(=O)N1CC2(C1)CN(Cc1cc(F)ccc1F)[C@H](CO)c1[nH]c3cc(OC)ccc3c12	.	.	-3.2	-4.8	2.8	.	-0.7	.	i
48	O=C(NCCCc1ccccc1)C1CCC(=O)N(Cc2ccc(Cl)cc2)C1 (centres undefined)	.	-2.1	-4.6	-15.2	2.1	-14.2	-2.0	0.703	i
49	CCCc1c(C(=O)NNc2cccc(Cl)c2)cnn1-c1ccccc1	-8.7%	0.7	-23.6	-32.5	3.4	5.3	0.7	0.617	i
50	Nc1ncnc(NCc2ccccc2)c1[N+](=O)[O-]	-4.2%	-1.2	1.9	1.7	-0.9	-23.7	-6.8	0.692	i

Following part:
#	mol	Vif TR-FRET	HNF4A DNA FP	rRNA inh HTS	rRNA inh HTS OD600	rRNA inh HTS RFP	ALR inh	AF4-AF9 inh	Ecoli growth	FGF22 binding
51	Cc1nnc(SCc2ccc(Cl)cc2)nc1/C=C/N(C)C	-1.9%	5.6	10.0	6.8	12.2	2.2	-0.1	0.66	i
52	COc1ccc(NC(=O)CN2CCN(CC(=O)Nc3ccc(F)cc3)CC2)c(OC)c1	3.1%	2.1	-0.6	-3.5	2.6	5.2	-0.4	0.615	i
53	Cc1ccc(S(=O)(=O)N2CCOCC2)cc1NC(=O)Cn1c(=O)ccn(Cc2ccccc2)c1=O	.	1.0	6.4	7.4	0.9	.	0.3	0.695	i
54	O=c1cc(-c2ccco2)oc2c1ccc1ccccc12	1.0%	2.7	.	.	.	-3.2	.	.	.
55	N#C[C@H]1[C@H](c2ccccc2-c2cccc(F)c2)[C@@H](CO)N1C(=O)C1CCC1	.	.	-1.9	0.2	-3.4	.	-1.8	.	i
56	Cc1cccc(N(C(=O)Cn2nnc3ccccc32)C(C(=O)NC(C)(C)C)c2ccsc2)c1C (centres undefined)	1.6%	1.9	.	.	.	-3.0	.	0.716	.
57	CC(O)CNc1nc2ccccc2n1CC(=O)N1CCN(Cc2ccccc2)CC1 (centres undefined)	-2.4%	1.1	24.2	11.0	4.6	2.8	-0.9	0.695	i
58	CC(C)NC(=O)N1Cc2cc(C(=O)NC3Cc4ccccc4C3)nc(-c3cccc(-c4cccnc4)c3)c2[C@@H]1CCO	.	.	-3.5	-0.1	7.4	.	-12.7	.	i
59	Cc1ccc(NC(=O)C2CCN(S(=O)(=O)c3ccc4c(c3)C(C)(C)C(=O)N4C)CC2)c(C)c1	.	-0.4	-15.1	-24.8	-0.1	0.7	-0.6	0.715	i
60	CN1C(=O)NC(NC(=O)c2ccco2)(C(F)(F)F)C1=O (centres undefined)	-6.5%	-0.8	.	.	.	-2.4	.	0.742	.
61	O=C(C[C@H]1CC[C@H]2[C@@H](COC[C@H](O)CN2C(=O)Nc2ccc(C(F)(F)F)cc2)O1)NC1Cc2ccccc2C1	.	.	-58.9	-80.5	-18.5	.	-1.0	.	i
62	O=C(Nc1ccc(N2CCOCC2)cc1N1CCOCC1)c1ccc(Cl)cc1	.	2.6	3.5	6.5	-0.4	-8.2	-0.2	0.717	i
63	Cc1cc(S(=O)(=O)N2CCN(C(=O)CCC(=O)N3CCOCC3)CC2)ccc1Br	.	-4.7	-0.1	6.5	8.2	.	14.0	0.686	i
